Screens as filed in PubChem.
eIF4H FP inh: human eIF4H binding inhibitors, primary screen, translation initiation inhibitor project, biochemical, uHTS, fluorescence polarization; Eukaryotic translation initiation factor 4H (Homo sapiens), Q15056; eIF4H fluorescence polarization binding assay; inhibition, % at 35 µM; hit rate 0.94% among 290,000;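 active = 50% or more with normal probe brightness, or confirmed in later tests; inconclusive = above 50% with abnormal brightness, or retests that disagree; inactive = below 50% or failed in later tests; about a fifth of its hits are not listed in these tables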;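 note: calls also rest on retests at 20 µM and on dose response follow-up; 0% = protein and probe with vehicle and 100% = probe without protein; strong numbers were not always called active; many hits fall short of the cut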
CSC inhib: cancer stem cell viability inhibitors, primary screen, luminescence; hit rate 1.1% among 300,000; inhibition, % at 7.5 µM; cancer stem cell-like cells viability;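 active = mean at 75% or more and at least half the replicates too; inconclusive = mean and replicates disagree; tested in HMLE shEcad cells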;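 note: 0% = median of negative and 100% = median of positive control wells; the first replicate is given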
MT1-MMP act inh: blockers of MT1-MMP proenzyme processing, primary screen, HT1080 RFP-PRO-GFP cells, GFP/RFP fluorescence | GFP/RFP ratio fluorescence, overnight; percent of plate control window, DMSO zero | GFP/RFP ratio change, % at 20 µM | hit rate 0.061% among 360,000 | Matrix metalloproteinase-14 (Homo sapiens), P50281;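 active = GFP/RFP ratio change of at least 30% with cell ATP level not reduced by more than half and red fluorescence within 50% of control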; note: strong numbers were not always called active
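Assay system: HT1080 cells carrying an RFP-PRO-GFP reporter | Dosing: Single dose of 20 µM compound, 1% DMSO final | Incubation: Cells overnight before dosing, compound overnight, 37 °C, 5% CO2 | Evaluation: GFP/RFP fluorescence ratio | Control set: DMSO and RFP-L50D-GFP cell wells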
HIV Env fusion: inhibitors of HIV-1 Env-driven cell-cell fusion, primary screen, HeLa-JRFL effector, CEM21 target cells, luciferase; inhibition, % at 12.3 µM; hit rate 1.1% among 360,000; AID 651610, 2012;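 active = mean replicate inhibition score of at least 50 and every replicate individually at or above 50; inconclusive = only one of the two criteria met; inactive = mean below 50 and not all replicates reaching 50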;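 note: 0% = plate neutral controls and 100% = maraviroc near 300 nM; one replicate is shown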
PABP FP inh: PABP poly(A) RNA binding inhibitors, primary screen, biochemical, fluorescence polarization, uHTS | hit rate 1% among 290,000 | inhibition, % at 35 µM | Polyadenylate-binding protein 1 (Homo sapiens), P11940;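 active = 50% or more with normal probe brightness, or confirmed in later tests; inconclusive = above 50% with abnormal brightness, or retests that disagree; inactive = below 50% or failed in later tests; about a fifth of its hits are not listed in these tables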;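 note: calls also rest on retests at 20 µM and on dose response follow-up; controls were probe without protein and protein plus probe with vehicle; some compounds called inactive have numbers as strong as hits; many hits fall short of the cut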
Rce1 inhib: yeast Rce1p protease inhibitors, primary screen, biochemical, fluorescence, cell-free homogeneous; CAAX prenyl protease 2 (Saccharomyces cerevisiae (strain ATCC 204508 / S288c)), Q03530; yeast membranes, quenched prenylated peptide cleavage fluorescence; calls only; hit rate 0.27% among 290,000;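 active = fall in fluorescence gain of 50% or more versus controls, with final raw signal at or below 3038400; inconclusive = same 50% fall but final raw signal above 3038400; inactive = fall in fluorescence gain under 50%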;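 note: plate controls were neutral control wells for no effect and wells lacking membranes for full effect; tested at 10 µM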
Target sequence (Q03530 whole entry, looked up): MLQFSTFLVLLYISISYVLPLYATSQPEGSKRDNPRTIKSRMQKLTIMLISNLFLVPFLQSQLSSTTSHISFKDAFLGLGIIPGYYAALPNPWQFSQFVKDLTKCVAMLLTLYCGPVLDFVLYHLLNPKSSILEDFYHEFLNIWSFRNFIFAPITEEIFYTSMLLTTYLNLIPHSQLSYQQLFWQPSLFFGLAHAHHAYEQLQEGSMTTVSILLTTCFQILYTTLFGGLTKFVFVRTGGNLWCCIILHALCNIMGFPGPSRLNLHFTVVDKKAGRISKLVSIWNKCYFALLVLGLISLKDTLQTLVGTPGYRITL
Yeast UUG start: modulators of yeast start codon fidelity, primary screen, whole organism, S. cerevisiae, single point, plate reader; activity score, % at 18.7 µM; AID 602363, 2012; S. cerevisiae UUG-firefly luciferase reporter, luminescence/redox ratio; hit rate 0.13% among 350,000;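 active = replicate mean at a twofold rise or more, about +100% in these data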;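 note: firefly luciferase made from a UUG start codon reports start codon fidelity; reporter light over untreated wells divided by growth signal over untreated wells; some hits fall short of that in this replicate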
MT1-MMP act inh RFP: further read-out of MT1-MMP act inh, marked with its call; RFP signal change, %; measured here: RFP expression control read;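 0 = vehicle wells; hits needed this value within 50% of zero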
The depositor's hits bear a star; i = inactive; ? = inconclusive; · = not tested or not shown; & = joins results of further samples.

The first seven compounds, to show the layout:
SMILES | eIF4H FP inh | CSC inhib | MT1-MMP act inh | MT1-MMP act inh RFP | HIV Env fusion | PABP FP inh | Rce1 inhib | Yeast UUG start
COc1cccc(NC(=O)C2CCCN2C(=O)Nc2ccccc2)c1 (stereo unspecified) | 0 | -7 | 3 | 3 | -5 | 4 | i | -18
CC(Oc1cccc2cccnc12)C(=O)N/N=C/c1ccc2c(c1)OCO2 (stereo unspecified) | · | -9 | 7 | 5 | -16 | · | i | -1
Cc1ccccc1OCC(=O)Nc1ccc2c(c1)C(=O)N(CCC(=O)O)C2=O | 4 | -7 | 4 | 3 | -21 | 4 | i | -12
CC1(C(=O)NS(=O)(=O)C2CC2)CCCN(C(=O)c2cccnc2Oc2ccccc2)C1 (stereo unspecified) | · | · | 1 | 2 | -4 | · | · | -15
CC(CN1CCCCC1)OC(=O)c1ccc2c(c1)OCCO2 (stereo unspecified) | 8 | 8 | 0 | 3 | -11 | 9 | i | -17
Cc1ccc(C)c(CNS(=O)(=O)c2ccc3c(c2)C(C)(C)C(=O)N3C)c1 | -8 | -5 | -2 | 2 | 7 | 9 | i | 6
COC(=O)c1cc(NC(=O)CC2C(=O)NCCN2C(=O)c2ccccc2)cc(C(=O)OC)c1 (stereo unspecified) | -9 | -17 | -2 | 3 | · | 3 | i | 4

The listing (from the top)
SMILES | eIF4H FP inh | CSC inhib | MT1-MMP act inh | MT1-MMP act inh RFP | HIV Env fusion | PABP FP inh | Rce1 inhib | Yeast UUG start
COc1cccc(NC(=O)C2CCCN2C(=O)Nc2ccccc2)c1 (stereo unspecified) | 0 | -7 | 3 | 3 | -5 | 4 | i | -18
CC(Oc1cccc2cccnc12)C(=O)N/N=C/c1ccc2c(c1)OCO2 (stereo unspecified) | · | -9 | 7 | 5 | -16 | · | i | -1
Cc1ccccc1OCC(=O)Nc1ccc2c(c1)C(=O)N(CCC(=O)O)C2=O | 4 | -7 | 4 | 3 | -21 | 4 | i | -12
CC1(C(=O)NS(=O)(=O)C2CC2)CCCN(C(=O)c2cccnc2Oc2ccccc2)C1 (stereo unspecified) | · | · | 1 | 2 | -4 | · | · | -15
CC(CN1CCCCC1)OC(=O)c1ccc2c(c1)OCCO2 (stereo unspecified) | 8 | 8 | 0 | 3 | -11 | 9 | i | -17
Cc1ccc(C)c(CNS(=O)(=O)c2ccc3c(c2)C(C)(C)C(=O)N3C)c1 | -8 | -5 | -2 | 2 | 7 | 9 | i | 6
COC(=O)c1cc(NC(=O)CC2C(=O)NCCN2C(=O)c2ccccc2)cc(C(=O)OC)c1 (stereo unspecified) | -9 | -17 | -2 | 3 | · | 3 | i | 4
Nc1ccc2cccc(O)c2c1 | · | · | 15 | -3 | -21 | · | · | -13
CCN(CC)S(=O)(=O)c1ccc(O)c(C(=O)OCC(=O)N2CCCc3ccccc32)c1 | · | · | 4 | 0 | -2 | · | · | 10
CCOc1ccccc1NC(=O)C1CCN(C(=O)c2cccs2)CC1 | 5 | -14 | 3 | 5 | 16 | -5 | i | ·
Cc1cccc(OCC(O)CN2CCN(C3CCCCC3)CC2)c1 (stereo unspecified) | -10 | 18 | 5 | 8 | · | 20 | i | 0
Cc1cc(C)c(NC(=O)CSc2nc3ncc(Br)cc3[nH]2)c(C)c1 | -9 | 3 | -5 | -11 | 5 | 1 | i | -22
COc1ccc(N/C=C(\C(C)=O)c2ccc(OC)c(OC)c2)cc1OC | 4 | -3 | 3 | 4 | -19 | ? | i | ·
O=C(CN(C(=O)CSc1nc2ccccc2o1)c1ccccc1)NC1CCCCC1 | 7 | · | 2 | -9 | · | 0 | i | -2
COc1ccc(C(C)C)cc1S(=O)(=O)Nc1ccncc1 | 3 | -16 | 3 | 10 | 4 | -8 | i | -7
CCC(=O)N1CCN(c2cc(N3CCCC3)c(F)cc2[N+](=O)[O-])CC1 | · | 0 | 4 | 3 | 0 | · | i | -1
COc1ccc(C2/C(=C(/O)c3ccc4c(c3)CC(C)O4)C(=O)C(=O)N2CCCN2CCOCC2)cc1OC (stereo unspecified) | -1 | 6 | 0 | 0 | -2 | 9 | i | -11
CCOc1cccc(CN2CCCC(N3CCc4ccccc4C3)C2)c1O (stereo unspecified) | -4 | -1 | -3 | -5 | -4 | 0 | i | -11
CSc1ncccc1C(=O)OCC(=O)N1CC(=O)Nc2ccccc21 | · | -5 | 1 | -2 | 4 | · | · | -9
CC(C)N(C(=O)CSc1nc(Cc2ccccc2)nc2ccccc12)C(C)C | -14 | 2 | -10 | -10 | 30 | -6 | i | -9
CC1(C)c2[nH]c3ccccc3c2C[C@@H]2C(=O)N(Cc3ccccc3)C(=O)N21 | · | -9 | 3 | -9 | 1 | · | i | -14
COc1ccc(Cl)cc1NC(=O)CN(C)C(=O)CNC(=O)C12CC3CC(CC(C3)C1)C2 | -5 | -7 | 11 | 3 | -39 | 14 | i | 5
COc1ccc(CCN2CC(C(=O)OCC(=O)c3c(N)n(CC(C)C)c(=O)n(C)c3=O)CC2=O)cc1OC (stereo unspecified) | · | · | -5 | -7 | 0 | · | · | 10
CCNC(=O)C(=O)NCc1ccncc1 | -9 | -5 | 0 | 6 | 17 | 4 | i | ·
CC(=O)NNC(=S)NC(=O)c1cccc([N+](=O)[O-])c1 | -6 | 1 | 1 | -1 | -12 | -11 | i | ·

The list continues:
SMILES | eIF4H FP inh | CSC inhib | MT1-MMP act inh | MT1-MMP act inh RFP | HIV Env fusion | PABP FP inh | Rce1 inhib | Yeast UUG start
CC1CCc2cccc3c(O)cc(=O)n1c23 (stereo unspecified) | · | 0 | -3 | -1 | -7 | · | i | ·
N#CCSCC(=O)Nc1ccc(Br)cc1 | -4 | -4 | -2 | -2 | -48 | -6 | i | -5
CC(=O)/C(N=Nc1ccc(OC(F)(F)F)cc1)=C(\C)O | -3 | 3 | 3 | 2 | 3 | 1 | i | ·
Cc1ccc(NC(=O)CCc2nnc3ccc(N4CCN(C)CC4)nn23)cc1F | -3 | 2 | 0 | 3 | 3 | -8 | i | -32
Cc1ccc(OCC(=O)Nc2ccc(O)c(C(=O)O)c2)cc1C | -5 | 15 | 9 | 3 | · | 10 | i | -4
CCCCNC(=O)c1ccc(CNc2c(N3CCC(C(=O)OCC)CC3)c(=O)c2=O)cc1 | -2 | -13 | 1&3 | 1&0 | · | -3 | i | ·
O=C(COC(=O)c1cc([N+](=O)[O-])ccc1NCCO)Nc1ccc2c(c1)OCO2 | 5 | 7 | -4 | -21 | 20 | 3 | i | ·
COc1cccc(C(=O)SC2=NCCS2)c1 | -3 | -27 | 13 | 0 | · | -7 | i | ·
CCCn1nnnc1-c1ccc(Cl)cc1 | 5 | -7 | -3 | 1 | 7 | 2 | i | -6
O=C(NCCC1CCCC1)c1cccs1 | -15 | 4 | 1 | -3 | -5 | 1 | i | -17
O=C1NC(=O)C(=O)N1 | · | -5 | 2 | 5 | -5 | · | · | -10
Cc1ccc(CNC(=O)CC2Sc3ccccc3NC2=O)cc1 (stereo unspecified) | -8 | -1 | 1 | -2 | -9 | -4 | · | ·
O=C1NC(=O)C(c2ccc(F)cc2)N1 (stereo unspecified) | 8 | -14 | 0 | 2 | -12 | 9 | i | -21
O=C(NCCS(=O)(=O)N1CCN(c2ccccc2F)CC1)C1CC(=O)N(c2ccccc2)C1 (stereo unspecified) | 2 | -11 | 1 | 0 | -1 | 11 | i | -7
COc1ccccc1NC(=O)N1CCOCC1 | -5 | -11 | -4 | 3 | -23 | -11 | i | -9
CC(C)=NOC(=O)c1c(C)noc1-c1snnc1C | -3 | 31 | 3 | 4 | 6 | -6 | i | -4
COc1ccccc1N(CC(=O)NCCSc1ccccc1)S(C)(=O)=O | -3 | -5 | -1 | 2 | 7 | 5 | i | -8
CC1CCN(C(=O)NC(=O)c2ccc(Cl)cc2)CC1 | -5 | -3 | 1 | 7 | -37 | -3 | i | -12
Cc1ccc(S(=O)(=O)NC(CC(=O)n2nc(C)cc2C)c2ccccc2)cc1 (stereo unspecified) | -16 | 9 | 5 | 0 | · | -2 | i | 1
COc1ccc(C=O)cc1Cn1cnc2c(cnn2C)c1=O | -14 | -10 | -1 | 1 | 7 | 3 | i | ·
CN(Cc1ccccc1)C(=O)CSc1nc2ccccc2c(=O)n1Cc1ccco1 | 2 | -4 | 4 | -5 | · | -6 | i | -18
COc1ccccc1/C=C/CN1CCOCC1 | 9 | · | 10 | 5 | · | -15 | i | -8
CCOC(=O)C1=C(C)NC(=O)NC1c1ccccc1Cl (stereo unspecified) | -9 | -7 | 3 | 3 | -78 | -13 | i | -21
COc1cc(OC)c2ccc(=O)oc2c1C(CC(=O)N1CCOCC1)c1ccc(N(C)C)cc1 (stereo unspecified) | 2 | -10 | 8 | 9 | 15 | -8 | i | -5
O=C(O)Cc1sc(Nc2cccc3ccccc23)nc1-c1ccc(F)cc1 | -4 | -4 | 3 | 5 | 17 | 7 | i | -11

Next section:
SMILES | eIF4H FP inh | CSC inhib | MT1-MMP act inh | MT1-MMP act inh RFP | HIV Env fusion | PABP FP inh | Rce1 inhib | Yeast UUG start
c1cncc(-c2nnc(-c3cccs3)o2)c1 | -2 | 9 | -4 | -7 | -32 | 6 | i | ·
COc1ccc(S(=O)(=O)N2CCCC2C(=O)Nc2ccc(C)cc2)cc1 (stereo unspecified) | 4 | 9 | 1 | 2 | 14 | 3 | i | 31
Cn1c(=O)c2c(nc(N3CCc4ccccc4C3)n2Cc2ccc(Br)cc2)n(C)c1=O | 1 | -2 | -5 | 0 | · | -4 | i | -4
CC(=O)c1cc(C#N)c(SCC(=O)Nc2nccs2)nc1C | -2 | -10 | 6 | 1 | -39 | 14 | i | -32
COc1ccc(CCC2CCNCC2)cc1 | -6 | 64 | 2 | 3 | -7 | 7 | i | -8
O=S1(=O)C[C@@H](O)[C@@H](Nc2ccc(Cl)cc2)C1 | -7 | -5 | 6 | 6 | -70 | -3 | i | -10
COc1cccc(NC(=O)C2CCN(c3cnccn3)CC2)c1 | -12 | -5 | 1 | 2 | 3 | -2 | i | -10
O=C1Nc2ccccc2/C1=C/c1ccccc1Cl | -10 | 50 | 1 | -4 | -67 | -6 | i | -4
O=C(Nc1cccc(Cl)c1)N1N=CCC1c1ccccc1 (stereo unspecified) | -3 | -4 | 4 | 3 | 2 | 4 | i | -6
CCCCn1c(=O)[nH]c(=O)c2c1nc(-c1ccc3ccccc3c1)n2CC | -15 | 7 | 1 | -13 | -6 | -2 | i | ·
COC(=O)c1c(NC(=O)C2Cc3ccccc3C(=O)O2)sc2c1CCCC2 (stereo unspecified) | 8 | 32 | -4 | -2 | 9 | -3 | i | ·
